Source: PubChem (ICCB-Longwood Screening Facility, Harvard Medical School)
PV pol inh: poliovirus RNA polymerase inhibition. % elongation, % (compound at 16.7 µg/mL). poliovirus polymerase elongation, fluorescence polarization; hits give low values. AID 588519. 150,000 compounds, 0.66% hits. P03300; in the data active means % elongation below about 90%; further: some results filed as inactive read as strong as hits
Target sequence (P03300 1749-2209 limits assumed): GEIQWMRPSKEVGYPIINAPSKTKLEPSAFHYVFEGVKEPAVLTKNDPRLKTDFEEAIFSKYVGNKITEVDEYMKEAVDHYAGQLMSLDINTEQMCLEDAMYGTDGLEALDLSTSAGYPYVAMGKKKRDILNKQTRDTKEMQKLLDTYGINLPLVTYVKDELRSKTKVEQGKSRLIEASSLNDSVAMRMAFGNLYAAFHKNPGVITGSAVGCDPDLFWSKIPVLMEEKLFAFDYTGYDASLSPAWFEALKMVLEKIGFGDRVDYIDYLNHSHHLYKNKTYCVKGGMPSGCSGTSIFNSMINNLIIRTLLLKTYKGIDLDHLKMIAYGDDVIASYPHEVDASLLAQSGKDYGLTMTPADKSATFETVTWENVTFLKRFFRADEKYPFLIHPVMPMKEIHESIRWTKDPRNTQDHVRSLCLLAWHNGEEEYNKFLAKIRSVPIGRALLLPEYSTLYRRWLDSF
PV pol inh intensity: second read-out of PV pol inh, no call of its own (marks repeat the call); % elongation; measured here: total intensity read-out; formula for this scale not given here;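 total fluorescence in place of polarization; lower means less elongation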
The depositor's hits bear a star. These rows are one share of the data; count on the stated rates, not on these rows.

SMILES,PV pol inh,PV pol inh intensity
Cc1cccc(C)c1NC(=O)Cn1c(=O)n(CCCS(=O)(=O)C2CCCCC2)c(=O)c2ccccc21,108,108
Cc1ccc(NC(=O)CCc2nnc3n(C)c(=O)c4sccc4n23)cc1C,104,107
COc1ccc(CCNC(=O)CCc2c(C)nc3c4cccnc4nn3c2C)cc1OC,100,100
Cc1cc(C)cc(NC(=O)CSc2nc(-c3cccc(Cl)c3)nc3c2Cc2c(CO)cnc(C)c2O3)c1,109,94
O=C(Nc1ccc(C(F)(F)F)cc1)c1cc(S(=O)(=O)N2CCCc3ccccc32)ccc1F,112,115
CCOc1ccc(OCC)c(NC(=O)CN(C)S(=O)(=O)c2ccc3[nH]c(=O)oc3c2)c1,108,109
CCc1cccc(C)c1NC(=O)c1cc(CN2CCCC2)on1,104,111
CC(=O)c1ccc(N2CCN(S(=O)(=O)c3ccc4[nH]c5c(c4c3)CCCC5)CC2)cc1,106,95
COc1ccccc1NC(=O)c1cnc(SCC(=O)N2CCCc3ccccc32)n(C)c1=O,106,117
CC(=O)c1cccc(NC(=O)c2nc(-c3ccccc3)n(-c3ccccc3C)n2)c1,104,112
CCSc1ncc(Cl)c(C(=O)Nc2sc3c(c2C(=O)NC)CCCC3)n1,122,126
O=C(Cn1c(=O)n(-c2ccccc2)c(=O)c2ccc(C(=O)NCc3ccc4c(c3)OCO4)cc21)Nc1ccc(F)cc1,99,99
Cc1nn(C)c2c1c(-c1ccccc1)cc(=O)n2Cc1c(F)cccc1Cl,108,114
Cc1c2cnn(CC(=O)N3CCN(c4ccccc4)CC3)c(=O)c2c(C)n1Cc1ccccc1Cl,108,108
CCC(Sc1nnc(-c2ccc(OC)cc2)c(-c2ccc(OC)cc2)n1)C(=O)NC1CCCCC1 (stereo not given),116,122

The results go on:
SMILES,PV pol inh,PV pol inh intensity
Cc1ccc2cc(CN(C)C(=O)c3cccc(Cl)c3)c(=O)[nH]c2c1,118,116
CCOC(=O)CSc1nc2ccc(NC(=O)c3cccc(F)c3)cc2s1,104,112
CCN1CCOC(=O)C1CC(=O)Nc1ccc(C(C)=O)cc1 (stereo not given),105,109
CCOC(=O)c1c(NC(=O)CSc2cn(CCNC(=O)c3c(F)cccc3F)c3ccccc23)sc2c1CCCC2,108,110
CCS(=O)(=O)n1nc(-c2ccco2)nc1NCc1ccc(C(C)C)cc1,113,104
O=C1CC(c2nc3ccccc3n2Cc2c(F)cccc2Cl)CN1c1cccc(C(F)(F)F)c1 (stereo not given),107,113
Brc1ccc(-c2nc(N3CCN(c4ccccc4)CC3)c3ccccc3n2)cc1,100,95
CC(=O)NCCNC(=O)CCCn1c(=O)[nH]c2ccsc2c1=O,107,109
COc1ccc(CCNC(=O)C(CC(C)C)N2Cc3ccccc3C2=O)c(OC)c1OC (stereo not given),108,98
Cc1ccc2c(C)c(C(=O)N(Cc3ccc(N(C)C)cc3)Cc3ccco3)oc2c1C,105,106
Cc1ccc(-c2nc(SCc3ccc(Br)cc3)n3[nH]c(=O)cc3n2)cc1,94,101
O=C(NCCc1ccc(Cl)cc1)c1ccc(CSCc2ccccc2Cl)o1,111,106
CCn1c(/C(C#N)=C/c2ccccc2Cl)nc2ccccc21,103,107
O=C(Cn1ccc2cc(S(=O)(=O)N3CCCCCC3)ccc21)NCc1cccc(Cl)c1,102,106
Cn1nnc2c(N3CCN(c4cccc(C(F)(F)F)c4)CC3)ncnc21,103,106

Other entries
SMILES,PV pol inh,PV pol inh intensity
CCCn1c(CCCNC(=O)c2ccccc2OC)nc2ccccc21,104,99
Cc1cccc(CCNC(=O)c2cc3c(=O)n(C)c4ccccc4c3n2C)c1,111,111
COc1ccc(NCc2nnc3n2CCCCC3)c(OC)c1,106,113
CCn1c(=O)sc2cc(NS(=O)(=O)c3ccc(C)cc3)ccc21,111,116
COC(=O)c1ccc(OC)c(CN2CCCN(Cc3ccc(C)cc3)S2(=O)=O)c1,101,104
Fc1ccccc1N1CCN(c2ncc3c(n2)CCN(Cc2cc(Br)cs2)C3)CC1,110,114
O=S(=O)(Nc1nc2n(n1)C(c1ccccc1)C=C(c1ccc(Cl)cc1)N2)c1ccccc1 (stereo not given),84,198
O=C(CCn1cnc2onc(-c3ccc(F)cc3)c2c1=O)Nc1cccc(C(F)(F)F)c1,109,112
O=c1oc2c(F)cc(F)cc2cc1S(=O)(=O)c1ccc(F)cc1,106,104
Cc1cc(S(=O)(=O)n2ccnc2C(C)C)cc([N+](=O)[O-])c1C,101,103
Cc1cccc(C)c1OCC(=O)Nc1ncn[nH]1,106,104
CCc1ccc(-n2c(=O)c3sc4ccccc4c3n(CC(=O)NCc3ccccc3)c2=O)cc1,103,107
CCCn1c(COc2cccc(C)c2)nc2ccccc21,107,109
Cc1cc(N2CCCCC2)nc2ccc(NC(=O)/C=C/c3ccc(OCCC(C)C)cc3)cc12,105,102
CCOc1ccccc1CNC(=O)CCc1c(C)nn(-c2ccc(N3CCCCC3)nn2)c1C,99,105

More entries:
SMILES,PV pol inh,PV pol inh intensity
CCCSCCCNC(=O)c1ccc2nc(Cc3ccccc3)oc2c1,105,108
COc1ccc(OC)c(C2C(C(=O)Nc3ccc(C)cc3)=C(C)Nc3nnnn32)c1 (stereo not given),105,96
CN(C)c1ccc(CNC(=O)Cn2ccc3cc(S(=O)(=O)N4CCCCCC4)ccc32)cc1,103,107
Cc1ccc(NC(=O)Nc2nnc(N(C)C3CCCCC3)s2)c(Cl)c1,104,104
O=C(Nc1nnc(S(=O)(=O)N2CCCCCC2)s1)c1ccccc1Cl,104,111
COc1ccc(CNC(=O)CCS(=O)(=O)c2cc3c4c(c2)CCN4C(=O)CC3)cc1OC,108,115
CCc1ccc(NC(=O)C(=O)NCC(c2cccnc2)N2CCN(c3ccc(F)cc3)CC2)cc1 (stereo not given),103,96
Cc1cc(C)cc(C(=O)NCCc2csc(-c3ccc(C(F)(F)F)cc3)n2)c1,112,115
CCn1c(SCc2ccccc2C)nc(=O)c2c(C(=O)OC)cc(C3CC3)nc21,102,105
Cc1ccc(CNC(=O)c2cn(C)c3ccc(S(=O)(=O)N4CCOCC4)cc3c2=O)cc1,109,102
Cc1ccc(CNC(=O)c2ccc3oc(=O)n(Cc4ccccc4)c3c2)cc1,110,114
Cc1cccc(NC(=O)CN2C(=O)C(c3ccc(F)cc3)=NC23CCCCCC3)c1,113,106
COc1cc2oc(=O)c(CC(=O)NCCc3ccccc3)c(C)c2cc1Cl,105,111
CCOc1ccc(N(CC)S(=O)(=O)N2CCCC(C(=O)NCCc3ccc(OC)cc3)C2)cc1 (stereo not given),108,109
CCNC(=O)c1c(NC(=O)COc2ccc(F)cc2)sc2c1CCCC2,107,110

(more compounds)
SMILES,PV pol inh,PV pol inh intensity
CCC1CCc2nc3sc(C(=O)Nc4cccc(C(F)(F)F)c4)c(N)c3cc2C1 (stereo not given),110,104
NC(=O)Cn1c(=O)n(CCCCCC(=O)NCc2ccc3c(c2)OCO3)c(=O)c2sccc21,108,114
CC1Cn2cc(C(=O)Nc3cccc(C(F)(F)F)c3)c(=O)c3c(Cl)ccc(c32)O1 (stereo not given),115,112
O=C(CSc1nnc(-c2ccccc2F)o1)N1CCc2ccccc21,110,112
Cc1nc2c3ccccc3nc(NNC(=O)CCC(=O)O)n2n1,105,109
CC(=O)c1ccc(N2CCN(c3ncnc4c3nc3n4CCCC3)CC2)cc1,104,103
CC(=O)c1ccc(NC(=O)c2cc3c(=O)oc4ccc(C)cc4c3s2)cc1,105,106
COc1cc(OC)cc(C(=O)Nc2nnc3n2CCS3)c1,102,113
CCn1nc(-c2ccccc2)c(-c2ccccc2)c(C(=O)Nc2ccc(S(N)(=O)=O)cc2)c1=O,108,112
CCOc1ccc(C2C(=O)N(C3CCCCCC3)CC(=O)N2Cc2ccc(F)cc2)cc1OC (stereo not given),101,98
COc1ccc(Cn2c(SCc3ccc(C(=O)NCc4cccs4)cc3)nc3ccncc32)cc1,109,108
Cc1cc(C(=O)Nc2cccc(C(F)(F)F)c2)c2c(C)nn(-c3cccc(F)c3)c2n1,103,108
CCN(CCCNC(=O)c1cc2c(=O)[nH]c3ccc(C)cc3c2s1)Cc1ccccc1,87*,94*
CCOC(=O)C1CCCN(CC(=O)N2CCCc3c2c(=O)oc2ccc(OCc4ccccc4)cc32)C1 (stereo not given),99,99
Cc1c(C(=O)NCCc2ccccc2)cccc1-n1cnc2cccnc21,107,107

Next part.
SMILES,PV pol inh,PV pol inh intensity
Cc1ccc(-c2nc3sc(CCNC(=O)c4ccc(F)c(F)c4)c(C)n3n2)cc1,108,108
CC(=O)N1c2ccc(S(=O)(=O)NCCC(=O)Nc3ccc(Br)c(C)c3)cc2CC1C (stereo not given),107,111
COc1ccc(CCNC(=O)CCc2c(C)nc3c(-c4ccc(F)cc4)c(C)nn3c2C)cc1OC,111,104
COCCCNC(=O)c1c(NC(=O)Cc2coc3c(C)c(C)ccc23)sc2c1CCCC2,115,117
COc1cccc(CNC(=O)CCCn2nc(C)n3c(cc4sccc43)c2=O)c1,102,107
COc1ccc(CNC(=O)CCc2c(C)c3cc4c(C)coc4c(C)c3oc2=O)cc1OC,104,103
CCOc1ccc(NC(=O)CSc2nc3ccccc3nc2N2CCOCC2)cc1,106,106
CC(C)Cn1cc(NC(=O)N2CCN(c3cccc(Cl)c3)CC2)c2ccccc2c1=O,106,110
Cc1cc(C)cc(Oc2nc3ccccn3c(=O)c2/C=C(\C#N)c2nc3ccccc3s2)c1,83,128
COc1cc(-c2noc(-c3cc4cc(F)ccc4oc3=O)n2)cc(OC)c1OC,115,123
Cc1ccc(C2CCN(C(=O)Nc3ccc(Cl)c(Cl)c3)C2)cc1 (stereo not given),105,106
COc1ccccc1CCNC(=O)c1cc2ccccn2n1,106,96
CCc1nnc(SCc2nc(-c3ccc(OC)c(OC)c3)oc2C)c2cc3sc(C)cc3n12,104,109
CC1=C(C(=O)NCc2ccc(Cl)cc2)C2(CCCCC2)OC1=O,100,96
COc1ccc(-c2nc3ccccc3s2)cc1NC(=O)c1cc2ccccc2o1,104,110

Single records, from the list above. Values in the order: PV pol inh | PV pol inh intensity
`COc1ccc(CNC(=O)CCc2c(C)c3cc4c(C)coc4c(C)c3oc2=O)cc1OC` as listed: 104 | 103
`CC(C)Cn1cc(NC(=O)N2CCN(c3cccc(Cl)c3)CC2)c2ccccc2c1=O` as listed: 106 | 110
`COc1cc(-c2noc(-c3cc4cc(F)ccc4oc3=O)n2)cc(OC)c1OC` as listed: 115 | 123
`CCOc1ccc(NC(=O)CSc2nc3ccccc3nc2N2CCOCC2)cc1` as listed: 106 | 106

(more compounds)
SMILES,PV pol inh,PV pol inh intensity
O=C(Cn1nnnc1-c1ccccc1F)Nc1ccc(OC(F)(F)F)cc1,103,104
Oc1c(C(c2ccc(F)cc2)N2CCN(Cc3ccccc3)CC2)sc2nc(-c3ccco3)nn12 (stereo not given),105,106
COc1ccc(OC)c(CNS(=O)(=O)c2ccc(-c3coc(C)n3)cc2)c1,113,110
O=C1CC(c2ccccc2)Cc2[nH]c(=O)c(C(=O)Nc3cccc(Cl)c3)cc21 (stereo not given),110,101
CCCN(C(=O)c1nn(-c2ccc(C)cc2)c(=O)c2c1c1ccccc1n2C)c1ccccc1C,101,104
COc1ccc(CCNC(=O)Cn2c(=O)c3sccc3n(CC(=O)Nc3cccc(C(F)(F)F)c3)c2=O)cc1OC,104,106
Cc1ccc(NC(=O)CSc2c3c(nc4ccccc24)CCCC3)cc1F,102,102
CNS(=O)(=O)c1cn(CC(=O)Nc2ccc(OC)cc2OC)cc1S(=O)(=O)NC,108,103
Cn1ncc2c(Nc3cccc(C#N)c3)ncnc21,110,112
Cc1ccc(Cn2ccnc2SCC(=O)Nc2ccc3c(c2)OCCO3)cc1,109,112
CCc1ccc(NC(=O)CSc2nc3ccsc3c(=O)n2C(C)CC)cc1 (stereo not given),109,115
Cc1cccc(NC(=O)c2sc(-n3nc(C)c(Cc4ccc5c(c4)OCO5)c3C)nc2C)c1C,103,97
Cc1ccc(C)c(NC(=O)Cn2ncc3c(C)n(Cc4ccc(F)cc4)c(C)c3c2=O)c1,109,109
O=C(COCc1cc(-c2ccco2)on1)Nc1cccc(Cl)c1Cl,108,107
Cc1ccc2scc(N3CCCCC3)c(=O)c2c1,104,108

Quoted at random: 4 entries already listed, in no set order.
SMILES,PV pol inh,PV pol inh intensity
O=C1CC(c2ccccc2)Cc2[nH]c(=O)c(C(=O)Nc3cccc(Cl)c3)cc21 (stereo not given),110,101
Cc1ccc(Cn2ccnc2SCC(=O)Nc2ccc3c(c2)OCCO3)cc1,109,112
Cc1ccc(C)c(NC(=O)Cn2ncc3c(C)n(Cc4ccc(F)cc4)c(C)c3c2=O)c1,109,109
Cc1cccc(NC(=O)c2sc(-n3nc(C)c(Cc4ccc5c(c4)OCO5)c3C)nc2C)c1C,103,97

The list continues.
SMILES,PV pol inh,PV pol inh intensity
COc1ccc(Cn2c(CCC(=O)Nc3cccc(Cl)c3)nc3cccnc32)cc1,103,101
Cc1ccc(-c2onc(C)c2C)cc1S(=O)(=O)Nc1ccccn1,106,111
Cc1ccc(NC(=O)CSc2ncccc2C(=O)Oc2ccccc2Cl)cc1Cl,115,114
CC(C)(C)OC(=O)N1CCC(c2c(C(=O)NCCc3ccccc3)cnn2-c2ccc(F)cc2F)CC1,109,115
CCCCNC(=O)CCC(=O)NNc1nc2ccccc2c2nc(-c3ccccc3)nn12,106,110
Cc1c(Cl)cccc1-n1ncc(C(=O)N2CCN(C)CC2)c1C1CCN(C(=O)OC(C)(C)C)CC1,114,116
COc1ccc(Nc2ccc3cc(S(=O)(=O)N4CCCC4)ccc3n2)cc1OC,101,105
Cc1cc(C)c(Cn2c(=O)n(CCCC(=O)NCc3ccc4c(c3)OCO4)c(=O)c3sccc32)c(C)c1,109,114
Cc1cc(C)n2nc(CNS(=O)(=O)c3cccc(Cl)c3)nc2n1,102,102
Cc1ccc(CNC(=O)C2CCN(S(=O)(=O)c3ccc4nc5c(c(C(=O)O)c4c3)CC(C)CC5)CC2)cc1 (stereo not given),105,108
